Autofluor counter – compound fluorescence in toxin protease inhibitor counterscreen | compound autofluorescence counterscreen, microsphere flow cytometry; hits give high values | fluorescence intensity (concentration not given with the values) | actives 3.1% (n = 360,000) | AID 624483;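 active = at least 3 SD above the mean of all compounds, about 16000 in these data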;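 also: 100 nL of 1 mM stock went into each well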
Sa ugtP lethal – growth inhibition of ugtP-null S. aureus, primary screen, RN4220 ugtP deletion, OD600. 16 h; some inactives read as strong as hits. growth inhibition, % (no concentration beside the values). actives 0.54% (n = 330,000);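 active = z-score under -3 and OD600 up to 0.15 on both plates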;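 also: plate controls were untreated wells for no effect and antibiotic for full effect; wells of about 80 µL received 100 nL stock; the first replicate is given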
Mtb hypoxia inh – PubChem AID 1159583; M. tuberculosis hypoxia-regulated fluorescent reporter, fluorescence; fluorescence inhibition, % (no concentration beside the values); actives 0.1% (n = 300,000);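 active = 35 to 45% if threefold the growth effect, above 45% if 1.5-fold the growth effect; inactive = the rest, general growth blockers included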;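 also: wells of about 50 µL received 100 nL stock; 0% = vehicle wells and 100% = reference inhibitor wells; whole bacteria with a GFP reporter of the hypoxia response; strong numbers were not always called active; many hits fall short of the cut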
Sa RN4220 lethal – growth inhibition of S. aureus RN4220, primary screen, OD600; inhibition, % (no concentration beside the values); actives 0.33% (n = 330,000); AID 1259311, 2017; 16 h;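 active = z-score of -3 or lower and OD600 up to 0.18 on both plates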;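 also: plate controls were untreated cells for no effect and reference antibiotic for full effect; stock transfer was 100 nL into about 80 µL; one replicate is shown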
BJeLR viability – MLPCN primary cell-based screen for lethality selective to Ras in HRASV12 cells. BJeLR (HRASV12) viability, CellTiter-Glo ATP luminescence, 48 h; reference of the scale not given here. inhibition, % (no concentration beside the values). actives 0.17% (n = 300,000). AID 1554, 2009;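 active = replicate mean above 50%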;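 also: 50 nL library stock added to about 25 µL; numbers are from one replicate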
PrP UTR inh – inhibition of PrP 5' UTR reporter expression. actives 0.35% (n = 340,000). cell-based PrP 5' UTR mRNA reporter, plate reader. inhibition, % (test concentration not listed). AID 488862, 2010;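 active = every replicate at 50% or more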;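 also: 0 = median of the neutral control wells; tested in H4 reporter cells; numbers are from one replicate; inactives centre near -14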
Mtb hypoxia inh growth – recorded beside Mtb hypoxia inh, whose call it bears; growth inhibition, %; measured here: M. tuberculosis growth (absorbance);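 0% = vehicle and 100% = reference antibiotic; read after six days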
Active calls of the source: *.

Sample of the layout (2 entries):
For CCCCNC(=O)C(C#N)c1nc2ccccc2nc1N1CCN(Cc2ccc3c(c2)OCO3)CC1 (configuration not stated) the results were Autofluor counter 4819, Sa ugtP lethal 6.4, Mtb hypoxia inh -5.8, Sa RN4220 lethal 1.6, PrP UTR inh -8.5 and Mtb hypoxia inh growth 2.0.
Cc1ccc(OCCCC(=O)NC(C)c2ccccc2)cc1 (configuration not stated) was read as Autofluor counter 2412, Sa ugtP lethal 8.9, Sa RN4220 lethal 2.8, BJeLR viability 1.6 and PrP UTR inh -11.8.

This part in full, from the first entry:
For CCCCNC(=O)C(C#N)c1nc2ccccc2nc1N1CCN(Cc2ccc3c(c2)OCO3)CC1 (configuration not stated) the results were Autofluor counter 4819, Sa ugtP lethal 6.4, Mtb hypoxia inh -5.8, Sa RN4220 lethal 1.6, PrP UTR inh -8.5 and Mtb hypoxia inh growth 2.0.
Cc1ccc(OCCCC(=O)NC(C)c2ccccc2)cc1 (configuration not stated) was read as Autofluor counter 2412, Sa ugtP lethal 8.9, Sa RN4220 lethal 2.8, BJeLR viability 1.6 and PrP UTR inh -11.8.
`CCOC(=O)C1=C(CC)Nc2ccccc2N=C1NC(=O)c1ccc(S(=O)(=O)N(C)C)cc1` gave Autofluor counter 3500, Sa ugtP lethal 3.3, Mtb hypoxia inh 14.5, Sa RN4220 lethal 0.9, BJeLR viability -7.9, PrP UTR inh 4.3 and Mtb hypoxia inh growth 13.5.
Cc1ccc(Cc2nc(-c3ccncc3)no2)cc1 was read as Autofluor counter 2200, Sa ugtP lethal -7.2, Mtb hypoxia inh -1.8, Sa RN4220 lethal -4.5, BJeLR viability 3.9, PrP UTR inh -26.2 and Mtb hypoxia inh growth 11.9.
Screening COc1ccc(C2(NC(C)=O)CCN(C(=O)c3cccs3)CC2)cc1 returned Autofluor counter 2966, Sa ugtP lethal 2.3, Mtb hypoxia inh 13.8, Sa RN4220 lethal 3.1, BJeLR viability -17.1, PrP UTR inh -2.2 and Mtb hypoxia inh growth 3.6.
For O=C(c1ccco1)N1CCN(CC(=O)N(C2CCCCC2)C2CCS(=O)(=O)C2)CC1 (configuration not stated) the results were Autofluor counter 4485, Sa ugtP lethal -2.3, Sa RN4220 lethal 0.2, BJeLR viability 8.8 and PrP UTR inh -14.5.
Screening COc1ccc(CCNC(=S)Nc2cccc(C)c2C)cc1 returned Autofluor counter 2624, Sa ugtP lethal 2.5, Sa RN4220 lethal 1.2, BJeLR viability 1.2 and PrP UTR inh -12.1.
Cc1cc(Cl)ccc1OCC(=O)N(Cc1ccco1)C1CCS(=O)(=O)C1 (configuration not stated) was read as Autofluor counter 4094, Sa ugtP lethal 6.8, Mtb hypoxia inh 2.7, Sa RN4220 lethal 6.9, BJeLR viability -15.4, PrP UTR inh -14.2 and Mtb hypoxia inh growth 6.4.
`CN(C)CCCN1C(=O)CSC1c1ccccc1` (configuration not stated) gave Autofluor counter 5778, Sa ugtP lethal 2.8, Mtb hypoxia inh -1.3, Sa RN4220 lethal 3.2, BJeLR viability 4.0, PrP UTR inh 0.4 and Mtb hypoxia inh growth 1.9.
Screening C/C(CC(=O)N1CCN(C=O)CC1)=N\NC(=O)c1ccc([N+](=O)[O-])cc1 returned Autofluor counter 1997, BJeLR viability 1.3 and PrP UTR inh -8.7.
`Cc1c(CC(=O)N[C@@H](C)C(=O)O)c(=O)oc2c(C)c3occ(-c4ccccc4)c3cc12` gave Autofluor counter 3109, Sa ugtP lethal 99.8*, Mtb hypoxia inh -3.0, Sa RN4220 lethal 93.8*, BJeLR viability -4.8, PrP UTR inh 13.1 and Mtb hypoxia inh growth -7.3.
For COc1ncccc1C(=O)N1CCCC(N2CCN(c3cccc(Cl)c3)CC2)C1 (configuration not stated) the results were Autofluor counter 4463, Sa ugtP lethal 13.8, Mtb hypoxia inh 7.6, Sa RN4220 lethal 5.9, BJeLR viability 5.8, PrP UTR inh -18.5 and Mtb hypoxia inh growth -3.4.
O=C(NC(=O)c1ccccc1)Nc1ccccn1 was read as Autofluor counter 5264, BJeLR viability 28.2 and PrP UTR inh 75.0*.
`Cn1cc(C(=O)Nc2ccc(Cl)c(Cl)c2)cn1` gave Autofluor counter 6206, Sa ugtP lethal 7.0, Mtb hypoxia inh 12.2, Sa RN4220 lethal -1.8, BJeLR viability 15.1, PrP UTR inh -30.8 and Mtb hypoxia inh growth 12.6.
NCCCC[C@H]1CNC(=O)C(=O)N1CCCCC1CCCCC1 was read as Autofluor counter 3080, BJeLR viability -2.0 and PrP UTR inh -22.8.
`N#Cc1c(NC(=O)COC(=O)c2ccc(S(=O)(=O)N3CCCC3)cc2)sc2c1CCCCC2` gave Autofluor counter 2051, Sa ugtP lethal -2.4, Mtb hypoxia inh -0.5, Sa RN4220 lethal 0.1, BJeLR viability 1.6, PrP UTR inh -23.1 and Mtb hypoxia inh growth 4.6.
Screening Cc1ccc(NC(=O)C(=O)Nc2ccccn2)cc1 returned Autofluor counter 1956, Sa ugtP lethal -1.4, Mtb hypoxia inh -1.0, Sa RN4220 lethal 1.0, BJeLR viability 4.8, PrP UTR inh 36.0 and Mtb hypoxia inh growth 7.0.
Screening CNCc1c(OCc2ccc(F)cc2)ccc2ccccc12 returned Autofluor counter 4453, Sa ugtP lethal 4.2, Mtb hypoxia inh -5.0, Sa RN4220 lethal 0.1, BJeLR viability -1.5, PrP UTR inh -20.8 and Mtb hypoxia inh growth -6.3.
`CCOC(=O)Cc1nnc(NC(=O)c2ccco2)s1` gave Autofluor counter 2427, Sa ugtP lethal -4.5, Sa RN4220 lethal 2.1, BJeLR viability -6.8 and PrP UTR inh -23.0.
COc1ccccc1/C=C\C=NNC(=O)CCn1nnc2ccccc21 was read as Sa ugtP lethal 0.5, Mtb hypoxia inh -11.8, Sa RN4220 lethal 0.2 and Mtb hypoxia inh growth -5.6.
For CSc1ncccc1C(=O)OCC(=O)NCc1ccc2c(c1)OCO2 the results were Autofluor counter 2125, Sa ugtP lethal -2.8, Mtb hypoxia inh -0.7, Sa RN4220 lethal -2.6, BJeLR viability 0.1, PrP UTR inh -18.0 and Mtb hypoxia inh growth 3.9.
Screening Cc1ccc(-c2nc(SCC(=O)NCC3CCCO3)c(-c3ccc(C)cc3)[nH]2)cc1 (configuration not stated) returned Autofluor counter 4217, Sa ugtP lethal -7.0, Mtb hypoxia inh -2.5, Sa RN4220 lethal -4.8, BJeLR viability -6.8, PrP UTR inh -22.0 and Mtb hypoxia inh growth 2.2.
`Cc1ccc(C(=O)NC(=S)Nn2cnnc2)cc1` gave Autofluor counter 10634, BJeLR viability 9.0 and PrP UTR inh -2.1.
Screening COc1cccc(N2CCN(C(=O)CCc3nnc4ccc(N5CCOCC5)nn34)CC2)c1 returned Autofluor counter 5669, Sa ugtP lethal -5.2, Mtb hypoxia inh -1.1, Sa RN4220 lethal -0.9, BJeLR viability 1.1, PrP UTR inh -3.6 and Mtb hypoxia inh growth 9.0.
`CCCCNC(=S)Nc1ccc(Oc2ccccc2)cc1` gave Autofluor counter 4056, Sa ugtP lethal 8.0, Mtb hypoxia inh 5.8, Sa RN4220 lethal -9.2, PrP UTR inh -49.9 and Mtb hypoxia inh growth 13.3.
`Cc1ccc(C(C(=O)NCc2ccco2)N(C(=O)CNC(=O)c2cccs2)c2ccc(C)cc2C)cc1` (configuration not stated) gave Autofluor counter 5625, Sa ugtP lethal 2.7, Mtb hypoxia inh 9.5, Sa RN4220 lethal 5.6, BJeLR viability 2.1, PrP UTR inh -6.8 and Mtb hypoxia inh growth 12.6.
For CCOC(=O)C1=C(C)OC(N)=C(C#N)C1c1ccc(OC)c(C)c1OC (configuration not stated) the results were Autofluor counter 20362*, Sa ugtP lethal -1.5, Mtb hypoxia inh 1.4, Sa RN4220 lethal -1.2, PrP UTR inh -6.8 and Mtb hypoxia inh growth 10.3.
For CC(C)(C)NC(=S)Nc1cccc(C(F)(F)F)c1 the results were Autofluor counter 4359, Sa ugtP lethal -4.3, Mtb hypoxia inh -13.8, Sa RN4220 lethal -4.9, BJeLR viability 11.4, PrP UTR inh -3.6 and Mtb hypoxia inh growth -11.4.
Screening O=C(c1nn2c(C(F)(F)F)cc(-c3cccs3)nc2c1Cl)N1CCCc2ccccc21 returned Autofluor counter 4916, Sa ugtP lethal 5.5, Mtb hypoxia inh 12.2, Sa RN4220 lethal 11.7, BJeLR viability 12.8, PrP UTR inh -10.6 and Mtb hypoxia inh growth 8.4.
For CN(CC(=O)Nc1ccc(F)cc1)C(=O)COC(=O)c1cc(Br)c(Br)s1 the results were Autofluor counter 3754, Sa ugtP lethal -10.1, Mtb hypoxia inh -3.5, Sa RN4220 lethal 6.2, PrP UTR inh -7.5 and Mtb hypoxia inh growth 3.0.
`O=C(O)C1CCCN1C(=O)C12CC3CC(CC(C3)C1)C2` (configuration not stated) gave Autofluor counter 4077, Sa ugtP lethal 0.9, Mtb hypoxia inh 14.8, Sa RN4220 lethal 6.6, BJeLR viability -6.6, PrP UTR inh -24.4 and Mtb hypoxia inh growth 1.0.
COc1ccc(NC(=O)CN2C(=O)CSc3ncccc32)cc1 was read as Autofluor counter 6078, Sa ugtP lethal -1.3, Mtb hypoxia inh -0.3, Sa RN4220 lethal 7.4, BJeLR viability -4.1, PrP UTR inh -9.6 and Mtb hypoxia inh growth 1.2.
Nc1ncnc2c1ncn2[C@@H]1O[C@H](CNC(=O)[C@@H](N)CO)[C@@H](O)[C@H]1O was read as Autofluor counter 3398, Sa ugtP lethal 7.3, Mtb hypoxia inh -5.4, Sa RN4220 lethal 2.5, PrP UTR inh -19.1 and Mtb hypoxia inh growth 4.3.
COc1cccc(NC(=O)Nc2cccc(C)n2)c1 was read as Autofluor counter 3785, Sa ugtP lethal 2.8, Mtb hypoxia inh 8.7, Sa RN4220 lethal 5.9, BJeLR viability -7.8, PrP UTR inh -31.3 and Mtb hypoxia inh growth 9.4.
For CN(C(=O)CSc1nnc(-c2ccc(OC(F)F)cc2)n1N)C1CCS(=O)(=O)C1 (configuration not stated) the results were Autofluor counter 4172, Sa ugtP lethal 8.2, Mtb hypoxia inh 3.2, Sa RN4220 lethal 3.7, BJeLR viability -8.0, PrP UTR inh -20.6 and Mtb hypoxia inh growth 2.0.
Cc1ccc(S(=O)(=O)N(C)Cc2ccc(C(=O)NN=C(CC(C)C)CC(C)C)cc2)cc1 was read as Autofluor counter 2428, Sa ugtP lethal 3.5, Mtb hypoxia inh 2.1, Sa RN4220 lethal 0.0, BJeLR viability 3.1, PrP UTR inh -14.5 and Mtb hypoxia inh growth 5.2.
Screening C/C(CC(=O)Nc1cc(C)ccn1)=N\NC(=O)C(=O)Nc1cccc(C)c1 returned Autofluor counter 2190, BJeLR viability -2.4 and PrP UTR inh -57.2.
For C=C(C)C(=O)OC1CC(C)=CC(=O)C=C(C)C(O)C2OC(=O)C(=C)C12 (configuration not stated) the results were Sa ugtP lethal -3.6 and Sa RN4220 lethal 9.9.
`O=C(NCc1cccc(C(F)(F)F)c1)C1CC(c2ccccc2F)=NO1` (configuration not stated) gave Autofluor counter 3085, Sa ugtP lethal -0.8, Mtb hypoxia inh 18.2, Sa RN4220 lethal 8.9, BJeLR viability -3.0, PrP UTR inh -13.5 and Mtb hypoxia inh growth 8.1.
`NS(=O)(=O)c1ccc(CCNC(=O)C(=O)Nc2cc3c4c(c2)CC(=O)N4CCC3)cc1` gave Autofluor counter 6364, Sa ugtP lethal 0.1, Mtb hypoxia inh 0.2, Sa RN4220 lethal 0.5, BJeLR viability 3.2, PrP UTR inh -10.2 and Mtb hypoxia inh growth -3.0.
Screening O=C(NC1CCCCC1)C(c1cccs1)N(Cc1cccs1)C(=O)c1cccs1 (configuration not stated) returned Autofluor counter 4311, Sa ugtP lethal 2.5, Sa RN4220 lethal -0.7, BJeLR viability 9.1 and PrP UTR inh -7.9.
CCOC(=O)C(CC)n1cnc2c(nnn2-c2ccc(OC)cc2)c1=O (configuration not stated) was read as Autofluor counter 17635*, Sa ugtP lethal 0.2, Mtb hypoxia inh 6.2, Sa RN4220 lethal 1.7, BJeLR viability -6.2, PrP UTR inh -19.2 and Mtb hypoxia inh growth 2.3.
CC(C(=O)N1CCc2ccccc21)N1CCN(c2cccc(C(F)(F)F)c2)CC1 (configuration not stated) was read as Autofluor counter 3513, Sa ugtP lethal 89.6*, Mtb hypoxia inh 3.4, Sa RN4220 lethal -4.1, BJeLR viability -8.2, PrP UTR inh -4.4 and Mtb hypoxia inh growth 4.3.
`COc1cc(Br)c(S(=O)(=O)Nc2c(C)n(C)n(-c3ccccc3)c2=O)cc1OC` gave Autofluor counter 21059*, Sa ugtP lethal 2.9, Mtb hypoxia inh 3.5, Sa RN4220 lethal 4.0, BJeLR viability 13.1, PrP UTR inh -34.1 and Mtb hypoxia inh growth 10.6.

Screening results: PubChem BioAssay, several laboratories
